Assay outcomes: PubChem, National Center for Advancing Translational Sciences (NCATS)
TRPV1 PAM: enhances activation of the human vanilloid receptor TRPV1; Q8NER1; TRPV1-expressing cells, Fluo-8 calcium influx, capsaicin EC20 potentiation; host cell line not named in the record; control for the full effect not named in the record; potentiation, % at 8.33 µM; 0.02% of 320,000 active; AID 540277; active means potentiation above 80%; inconclusive means 30% to 80%; inactive means below 30%; further: 0% is about no effect
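Fluo-8 calcium influx in TRPV1-expressing cells, kinetic read (ex 480/em 520 nm). Compound added and read 3 min for agonist activity, followed by capsaicin at EC20 final and 2 min further read for enhancement.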
D2 PAM: human D2 receptor positive allosteric modulation; 0.23% of 360,000 active; potentiation, % (no concentration beside the values); P14416; DiscoveRx D2 beta-arrestin cells, luminescence, 90 min; 100% = 57 uM dopamine signal; AID 624464; active = potentiation of 50% or more; inconclusive = 30% to 50%; inactive = 30% or less;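 further: compound concentration not given in the record; tested on top of an EC20 dose of dopamine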
Target sequence (P14416 whole entry, looked up): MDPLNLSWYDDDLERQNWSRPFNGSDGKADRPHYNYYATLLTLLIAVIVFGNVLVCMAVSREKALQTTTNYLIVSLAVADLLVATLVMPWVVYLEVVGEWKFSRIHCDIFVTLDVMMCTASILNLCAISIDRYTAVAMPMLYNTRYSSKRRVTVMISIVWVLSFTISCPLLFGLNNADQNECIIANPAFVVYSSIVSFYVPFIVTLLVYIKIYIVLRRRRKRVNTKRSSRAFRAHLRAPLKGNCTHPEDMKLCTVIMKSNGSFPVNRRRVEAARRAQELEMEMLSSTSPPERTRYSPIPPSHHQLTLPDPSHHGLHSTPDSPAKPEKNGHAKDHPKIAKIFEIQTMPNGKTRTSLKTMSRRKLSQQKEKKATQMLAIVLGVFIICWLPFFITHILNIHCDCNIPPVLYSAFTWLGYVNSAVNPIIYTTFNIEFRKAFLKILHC
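PathHunter D2 cells, attached overnight at 37 deg C, received compound in DMSO plus dopamine at EC20 (50 nM final) for 90 min at 37 deg C. Beta-arrestin recruitment was read as luminescence after 1 h with detection reagent at ambient temperature.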
ClpP mod: qHTS Assay for Activators of ClpP; ATP-dependent Clp protease proteolytic subunit (Bacillus subtilis (strain 168)), P80244; purified B. subtilis ClpP, FRET peptide cleavage, 20 min; Potency, µM (series often up to 57.5 µM), for inactives: top-dose activity change, negative = active; 1.9% of 340,000 active; AID 651965, 2013; active = well fitted falling curve with a large enough effect; inconclusive = small, poorly fitted or top-dose-only effect; inactive = no such curve, though single readings can be large or run the other way; further: potency means the concentration at half of the fitted maximal effect; the source files actives as falling curves though it sought activators and does not explain the sign; nearly all actives have a fitted effect of over 65% in size; many hits overshoot -100%
Target sequence (P80244 whole entry, looked up): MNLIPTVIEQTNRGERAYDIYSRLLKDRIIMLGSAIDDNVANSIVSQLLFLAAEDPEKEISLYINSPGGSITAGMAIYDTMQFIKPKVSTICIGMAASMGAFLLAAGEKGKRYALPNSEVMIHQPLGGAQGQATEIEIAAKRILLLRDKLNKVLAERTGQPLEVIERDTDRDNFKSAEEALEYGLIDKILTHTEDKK
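Buffer: 100 mM Tris/HCl pH8, 100 mM KCl, 0.05% low protease BSA, 2.5% glycerol, 0.01% Tween-20. ClpP 10 microg/mL final; 20 min RT; delta FRET normalized to ADEP and DMSO controls.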
gsp agonist: activates gsp, the McCune-Albright syndrome mutation | gsp mutant cells, cAMP HTRF, 30 min; control for the full effect not named in the record | Potency, µM (highest dose often 76.9 µM), inactives show at the highest dose activation (cAMP increase), usual class: activators | 0.13% of 340,000 active | AID 624287; active = well fitted activation curve with a large enough effect; inconclusive = small, poorly fitted or top-dose-only effect, or another doubt; inactive = no such curve, though single readings can be large or run the other way; cell line not stated here;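 further: phosphodiesterase inhibitor Ro 20-1724 added with compounds to block cAMP breakdown; potency means the concentration at half of the fitted maximal effect; nearly all actives have a fitted effect of over 60% in size; about a fifth of the inactives were tested at one dose only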
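Cells in DMEM/10% FBS with G418 were pretreated with compounds in DMSO plus […] (300 uM stock) for 30 min at 37C. cAMP was measured by HTRF (cAMP-d2 plus anti-cAMP antibody-K) after 30 min at room temperature.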
gsp antag: gsp mutant antagonism; AID 624288; gsp-mutant cells, cAMP HTRF, 30 min; control for the full effect not named in the record; 0.4% of 340,000 active; Potency, µM (series often up to 76.9 µM), for the others: at the highest dose activity change, negative = inhibition, hits mostly inhibitors; active = falling curve of any shape with a large fitted effect; inconclusive = falling curve, mostly with a smaller effect; inactive = flat or rising curve; cell line not stated here;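 further: intracellular cAMP measured with PDE inhibitor Ro 20-1724 present during compound exposure; potency means the concentration at half of the fitted maximal effect; on the % scale 0 is the no-effect control and ±100 the full control effect; nearly all actives have a fitted effect of over 65% in size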
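HTRF cAMP read-out (cAMP-d2 plus anti-cAMP antibody-K in lysis buffer, 30 min RT). Before lysis, cells are exposed to compounds with […] for 30 min at 37C in DPBS containing Ca/Mg, BSA and Tween 20.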
Sfp PPTase inh: Sfp phosphopantetheinyl transferase inhibition | Q9F4F7 | Potency, µM, for inactives: max response, negative = inhibition, hits mostly inhibitors | Biochemical Sfp PPTase activity, qHTS | 3.5% of 310,000 active; active means well fitted inhibition curve with a large enough effect; inconclusive means small, poorly fitted or top-dose-only effect, or another doubt; inactive means no such curve, though single readings can be large or run the other way;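 further: the enzyme is Sfp with the accession as filed and its product quenches rhodamine fluorescence; potency means the concentration at half of the fitted maximal effect; 0% = enzyme reaction without inhibitor and -100% = no enzyme wells; top concentration of the series not given in the record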
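Fluorescence-quenching assay with 15 nM Sfp, 5 uM rhodamine-CoA and 12.5 uM BHQ-2-labelled ybbR peptide in pH 7.6 Hepes/MgCl2 buffer. Enzyme was pre-incubated with compound for 15 min at room temperature. Rate was taken from the 30-min fluorescence change (525/598 nm).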
Menin-MLL FL inh: inhibitors of human menin-MLL interaction, wild-type MLL peptide; Fluorescence polarization, fluorescein-MLL peptide displacement from menin; FP activity change, % at 61.4 µM; 290,000 tested, under 10 active; AID 1766; inconclusive = falling polarisation curve, or a change in total fluorescence; inactive = total fluorescence flat and polarisation flat or rising; no compound was filed as active; the % refers to the polarisation; negative = inhibition;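 further: % of control where 0% means no effect; inhibitors lower the polarisation; unlabelled MLL peptide was the positive control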
* hit, by the source's call; ? = inconclusive; · = not tested or not shown; [ ] = another dose, or the depositor's remark.

item | SMILES | TRPV1 PAM | D2 PAM | ClpP mod | gsp agonist
1 | COC(=O)NC(=S)Nc1ccc(Oc2ccc(Cl)cc2)c(Cl)c1 | ? | -6 | 0.1% | -21%
2 | CCc1ccc(N(CC(=O)NCc2ccc3c(c2)OCO3)C(=O)c2csnn2)cc1 | 5 | -4 | · | 0%
3 | Cc1cccc(OCC(=O)Nc2ccncc2)c1C | -23 | 2 | 1.0% | 19%[15.4 µM]
4 | CC(=O)Nc1ccc(S(=O)(=O)Nc2nccc(C)n2)cc1 | 4 | 0 | -4.1% | 1%
5 | COc1ccc(S(=O)(=O)N2CCCCCC2)cc1C(=O)Nc1ccc(C(=O)N(C)C)cc1 | -1 | 14 | -3.3% | -3%
6 | Cn1c(=O)[nH]c(=O)c2c1nc(NC1CCCC1)n2Cc1ccccc1 | -1 | -14 | 1.0% | 4%
7 | O=C(CC1S/C(=N/N=C/c2cccs2)NC1=O)Nc1ccccc1F (stereo unspecified) | -1 | -11 | -0.8% | ?
8 | Cc1ccc2nc(-c3ccccc3)cc(C(=O)N3CCN(S(=O)(=O)c4c(C)noc4C)CC3)c2c1 | -2 | -10 | ? | -31%[inhibitor]
9 | CCOC(=O)/C=C1\NC(=O)C(C)S1 (stereo unspecified) | 8 | -5 | 1.1% | -12%
10 | CCn1c(CNC(=O)c2cccc(C)c2)nnc1SCC(=O)N1CCOCC1 | 0 | -4 | -0.2% | 10%[15.4 µM]

item | gsp antag | Sfp PPTase inh | Menin-MLL FL inh
1 | -6% | -8% | -0.3
2 | -3% | 11% | -3.7
3 | -5% | 5% | -1.7
4 | -4% | 15% | -7.7
5 | -13% | · | ·
6 | -5% | 6% | 2.3
7 | 3% | -10% | 4.7
8 | -4% | · | ·
9 | 16% | 1% | -1.3
10 | 0% | 6% | ·

item | SMILES | TRPV1 PAM | D2 PAM | ClpP mod | gsp agonist
11 | COc1cc(C)c(Cl)c(C)c1S(=O)(=O)NCc1ccc2c(c1)OCO2 | -8 | -6 | -2.1% | -46%[inhibitor]
12 | CN(Cc1ccccc1)CC(O)COc1ccc(CNCCc2cccnc2)cc1 (stereo unspecified) | 10 | -18 | 0.2% | 11%
13 | Cc1cc(C)n(CCOc2ccc(Cl)cc2Cl)n1 | 10 | 2 | 0.9% | -25%
14 | CCOCCCN(C)C1CCN(C(=O)c2oc3ccccc3c2NC(=O)c2ccc([N+](=O)[O-])cc2)CC1 | 25 | -27 | -1.5% | ?
15 | COc1ccc(OC)c(S(=O)(=O)N2C(C)CCCC2C)c1 (stereo unspecified) | -14 | -13 | -5.2% | 1%
16 | COc1cccc(NC(=O)CN(C)CC(=O)NCC(=O)Nc2ccc(F)cc2)c1 | · | -3 | -1.1% | -9%
17 | COc1cccc(/C=N/NC(=O)CCn2c3ccccc3c3ccccc32)c1 | 28 | -1 | 44% | ?
18 | CCn1ncc(C(=O)Nc2cccc(Cl)c2)c1C | -15 | -11 | 3.6% | -3%[15.4 µM]
19 | COc1ccc2ccccc2c1CNC(=O)CC1C(=O)NCCN1CC(C)(C)C (stereo unspecified) | -17 | -6 | -6.6% | -12%
20 | COc1ccc(NC(=S)NC(=O)/C=C/c2ccccc2)cc1 | 11 | -5 | · | -56%

item | gsp antag | Sfp PPTase inh | Menin-MLL FL inh
11 | -8% | 6% | -1.3
12 | 5% | 7% | 0.3
13 | 10% | 3% | 0.9
14 | 1% | 8% | ·
15 | -1% | 6% | 4.6
16 | -1% | · | ·
17 | -11% | 17% | 2.3
18 | -3% | 2% | -1.3
19 | 12% | 9% | 5.1
20 | -4% | 13% | 2.6

item | SMILES | TRPV1 PAM | D2 PAM | ClpP mod | gsp agonist
21 | COCCn1c(=O)sc2ccccc2c1=O | -13 | -6 | · | -1%[15.4 µM]
22 | COCOCCn1cc(CN2CCS(=O)(=O)N(Cc3ccc(-c4ccncc4)cc3)C(C)C2=O)nn1 (stereo unspecified) | · | 2 | -6.4% | -48%[inhibitor]
23 | COc1ccc(N2CCN(C(=O)COC(=O)CNC(=O)c3ccc(C)cc3)CC2)cc1 | -9 | -18 | 1.4% | 10%
24 | Cc1ccccc1NC(=S)NC(=O)c1cncc(Br)c1 | -4 | -31 | -2.0% | 5%
25 | CCOC(=O)C[N+](C)(C)CCOC1CC2CCC1(C)C2(C)C (stereo unspecified) | 9 | -5 | 0.6% | 17%
26 | O=C(NC1CC1)C1CCN(c2ncccn2)CC1 | 0 | -5 | · | -25%
27 | CC1CC(C)CN(C(=O)C(Cc2ccccc2)NC(=O)c2ccccc2)C1 (stereo unspecified) | -7 | 2 | -2.3% | 11%
28 | COc1cccc(-c2nnc(NC(=O)c3ccc(S(=O)(=O)N4CC(C)OC(C)C4)cc3)o2)c1 (stereo unspecified) | 22 | -7 | -0.4% | -13%
29 | CN(Cc1ccco1)C(=O)C1CCC(=O)N1Cc1ccc(F)cc1 (stereo unspecified) | 13 | -8 | 0.8% | 23%
30 | O=C(O)c1ccccc1NCc1ccsc1 | -18 | -8 | · | 9%[15.4 µM]

item | gsp antag | Sfp PPTase inh | Menin-MLL FL inh
21 | · | 7% | -6.0
22 | · | · | ·
23 | 21% | · | ·
24 | -6% | 3% | 4.0
25 | 0% | 24% | -0.1
26 | 5% | 13% | ·
27 | -13% | · | ·
28 | 35µM* | -22% | -2.2
29 | -1% | 16% | 4.5
30 | -3% | 11% | 4.9

An excerpt from above, reduced to gsp agonist, D2 PAM and Sfp PPTase inh:
| item | molecule | gsp agonist | D2 PAM | Sfp PPTase inh |
| --- | --- | --- | --- | --- |
| 16 | COc1cccc(NC(=O)CN(C)CC(=O)NCC(=O)Nc2ccc(F)cc2)c1 | -9% | -3 | · |
| 5 | COc1ccc(S(=O)(=O)N2CCCCCC2)cc1C(=O)Nc1ccc(C(=O)N(C)C)cc1 | -3% | 14 | · |
| 11 | COc1cc(C)c(Cl)c(C)c1S(=O)(=O)NCc1ccc2c(c1)OCO2 | -46%[inhibitor] | -6 | 6% |
| 12 | CN(Cc1ccccc1)CC(O)COc1ccc(CNCCc2cccnc2)cc1 (stereo unspecified) | 11% | -18 | 7% |

The list goes on:
item | SMILES | TRPV1 PAM | D2 PAM | ClpP mod | gsp agonist
31 | COCOCCn1cc(CN2CCS(=O)(=O)N(Cc3ccc(-c4ccc(C)cc4)cc3)C(C)C2=O)nn1 (stereo unspecified) | · | 0 | -1.0% | -40%
32 | Cc1ccc(NC(=O)CN2C(=O)S/C(=C\c3ccccn3)C2=O)cc1C | -7 | -11 | -0.4% | 21%
33 | Cc1ccccc1NC(=O)CSc1n[nH]c(-c2ccco2)n1 | -1 | 11 | ? | 5%[15.4 µM]
34 | CC(C)Oc1ccc(-c2cc(C(=O)NCCN3CCOCC3)c3ccccc3n2)cc1 | 0 | 7 | ? | -32%[inhibitor]
35 | O=C(CCNC(=O)c1ccccc1Cl)Nc1cc(S(=O)(=O)N2CCOCC2)ccc1N1CCCC1 | 4 | 0 | · | 19%[15.4 µM]
36 | Cn1c(=O)c2c(nc(CN3CCN(c4ccccc4)CC3)n2CCc2ccccc2)n(C)c1=O | · | -35 | -4.2% | 5%
37 | COc1ccc(OCC(=O)Nc2cccc(S(=O)(=O)N(C)c3ccccc3)c2)c([N+](=O)[O-])c1 | 2 | -1 | 2.5% | 1%
38 | CCOc1cc(C(=O)Nc2cc(C)on2)cc(OCC)c1OCC | -9 | 0 | 0.0% | -4%
39 | CN(Cc1ccccn1)C(=O)c1cc(COc2ccc(F)c(F)c2)on1 | · | -15 | -3.5% | -110%[inhibitor]
40 | Cn1cnnc1SC1CCCCC1NS(=O)(=O)c1ccccc1 (stereo unspecified) | 14 | 8 | -0.4% | -40%[inhibitor]

item | gsp antag | Sfp PPTase inh | Menin-MLL FL inh
31 | · | · | ·
32 | 10% | 3% | ·
33 | 14% | -7% | -0.5
34 | -3% | 79µM* | -3.3
35 | -2% | 20% | 1.8
36 | -34%[15.4 µM] | · | ·
37 | 1% | · | ·
38 | 8% | 18% | 5.6
39 | · | · | ·
40 | 9% | 12% | 3.4

item | SMILES | TRPV1 PAM | D2 PAM | ClpP mod | gsp agonist
41 | COc1ccc(-n2c(SCC(=O)C(C)(C)C)nc3c(sc(=S)n3-c3ccccc3)c2=O)c(OC)c1 | 0 | -7 | 0.5% | -2%[15.4 µM]
42 | Cc1csc(NC(=O)CN2C(=O)COc3ccc(Cl)cc32)n1 | -3 | 0 | 1.2% | 3%[15.4 µM]
43 | COC(=O)c1nc2ccccc2s1 | -5 | -12 | -7.1% | 17%
44 | CCCc1cc2c(=O)c(-c3ccc4c(c3)OCCO4)coc2cc1OS(C)(=O)=O | -9 | 17 | -2.2% | 0%
45 | CC(=C/c1ccc(C(C)C)cc1)/C=N/NC(=O)CSc1ccccn1 | -9 | -4 | -2.3% | -88%[inhibitor]
46 | CCOC(=O)c1cc(C#N)c(SCC(=O)OC)[nH]c1=O | 2 | -5 | · | -2%[15.4 µM]
47 | COc1ccccc1/C=C/C(=O)NCC(=O)N=Nc1c(O)[nH]c2ccccc12 | 3 | -12 | 2.0% | -2%
48 | CS(=O)(=O)c1cnc2c(-c3ccc(F)cc3)cnn2c1N | -36 | 12 | 4.5% | -29%

item | gsp antag | Sfp PPTase inh | Menin-MLL FL inh
41 | -35% | 3.5µM* | -15
42 | 11% | · | ·
43 | 15% | 21% | 1.5
44 | ? | -1% | 6.4
45 | -31% | -9% | 4.6
46 | 0% | 50µM* | -4.8
47 | 1% | 10% | ·
48 | 9% | 9% | 0.2

3 entries already listed, arranged by formula weight, rising:
item | SMILES | TRPV1 PAM | D2 PAM | ClpP mod | gsp agonist
46 | CCOC(=O)c1cc(C#N)c(SCC(=O)OC)[nH]c1=O | 2 | -5 | · | -2%[15.4 µM]
45 | CC(=C/c1ccc(C(C)C)cc1)/C=N/NC(=O)CSc1ccccn1 | -9 | -4 | -2.3% | -88%[inhibitor]
47 | COc1ccccc1/C=C/C(=O)NCC(=O)N=Nc1c(O)[nH]c2ccccc12 | 3 | -12 | 2.0% | -2%

item | gsp antag | Sfp PPTase inh | Menin-MLL FL inh
46 | 0% | 50µM* | -4.8
45 | -31% | -9% | 4.6
47 | 1% | 10% | ·
